GIV Gai3 FP – blocks GIV peptide binding to rat Galpha-i3 | P08753 | Galpha-i3/FITC-GIV peptide fluorescence polarization, 90 min; active compounds read low; scaled: aluminum fluoride 0%, vehicle 100% | percent of control (FP), % (concentration not given with the values) | hit rate 0.42% among 210,000;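 active means replicate mean at 85% of control or lower, very high polarization wells dropped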;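 further: wells of about 15 µL received 100 nL stock; the first replicate is given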
Target sequence (P08753 whole entry, looked up): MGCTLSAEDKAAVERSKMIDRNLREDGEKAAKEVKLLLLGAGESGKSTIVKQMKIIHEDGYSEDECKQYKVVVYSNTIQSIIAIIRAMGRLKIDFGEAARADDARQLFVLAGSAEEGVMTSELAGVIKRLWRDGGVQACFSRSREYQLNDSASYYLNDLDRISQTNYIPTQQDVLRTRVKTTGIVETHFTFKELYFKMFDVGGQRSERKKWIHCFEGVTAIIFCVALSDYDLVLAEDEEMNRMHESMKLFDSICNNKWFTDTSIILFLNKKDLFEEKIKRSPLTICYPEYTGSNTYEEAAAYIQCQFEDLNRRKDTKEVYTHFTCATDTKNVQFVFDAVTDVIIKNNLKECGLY
HCMV UL50-53 inh – inhibitors of HCMV UL50-UL53 nuclear egress complex interaction. hit rate 0.15% among 190,000. HTRF UL50-UL53 interaction, normalized percent inhibition. inhibition, % (no concentration beside the values);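 active means both replicates at 50% or more, plus weaker picks with an unusually low signal ratio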;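 further: stock transfer was 100 nL into about 20 µL; 0% = negative control wells and 100% = wells with untagged competitor protein; inactives centre near -12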
Sa growth inh – inhibitors of Staphylococcus aureus growth at 42 °C | S. aureus RN4220 growth, OD600, 20 h; active compounds read low | relative growth, % (test concentration not listed) | hit rate 0.53% among 170,000;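 active means growth at 42 °C up to 50% and 20 or more points under that at 30 °C, or under 10% at both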;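 further: 300 nL library stock went into each well; scaled to the means of positive and negative controls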
Sa growth inh second temp – recorded beside Sa growth inh, whose call it bears; relative growth, %; measured here: growth at 30 °C;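 optical density after 20 h as mean of two plates; 100% = untreated growth and lower means inhibition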
Active calls of the source: *; . = no result given; & = joins results of further samples.

The line under a structure holds: Sa growth inh, GIV Gai3 FP, Sa growth inh second temp, HCMV UL50-53 inh
O=S(=O)(c1ccc(F)cc1)c1nc(-c2ccc(Cl)cc2)oc1N1CCCC1
  ., 104, ., -20
Cc1nc(-c2ccc(C(=O)O)cc2)cs1
  94, 111, 96, 2
CCOc1ccc2c3c(c(=O)oc2c1C)CCC3
  90, 106, 95, .
COc1ccc(S(=O)(=O)N(C)Cc2ccccc2)cc1OC
  93, 102, 92, -8
CCCSCCCNC(=O)c1ccc(Cn2c(=O)c(=O)[nH]c3cccnc32)cc1
  ., 107, ., -22
CCc1nc2ccc(C(=O)NCCc3cnc[nH]3)cc2nc1CC
  98, 106, 101, -10
CSc1cc(C(F)(F)F)c(C(=O)Nc2c(C)cccc2C)cn1
  88, 102, 91, -31
NCc1ccc2cc[nH]c(=O)c2c1
  89, 104, 94, .
CN(C)c1ccc(NC(=O)C2CC3CCCC(C2)C3=O)cc1 (stereo not given)
  81, 100, 87, -33
CC(C)=CC(=O)Nc1cc(Cl)ccc1C
  131, 106, 97, -5
COC(CNC(=S)c1ccc(NC(C)=O)cc1)OC
  86, ., 82, -28
O=C1NCCCCC1NS(=O)(=O)c1cccc(C(F)(F)F)c1 (stereo not given)
  101, 104, 97, -4
O=C(c1ccc(N2CCNCC2)c(NS(=O)(=O)c2ccc(Br)cc2)c1)N1CCOCC1
  ., 102, ., -8
Cn1c(=S)[nH]c2ccccc2c1=O
  120, ., 87, -11
Cc1cccc(C(=O)N2CCc3c(c(C(=O)NCc4ccccc4)nn3C)C2)c1
  ., 104, ., -28
CNCc1cc2ccccc2s1
  103, ., 94, -10
CCc1cc2cc3c(cc2nc1SCC(=O)N1CCCCC1)OCO3
  87, 97, 106, 11
Cc1sc2ncnc(SCC(N)=O)c2c1C
  79, 111, 81, 4
Cc1cc(C2=Nn3cc(-c4ccccc4)nc3SC2)c(C)n1CC1CCCO1 (stereo not given)
  33, ., 7, -23
CCOc1ccccc1NC(=O)N1CCC(N2CCN(Cc3ccccc3)C(=O)C2=O)CC1
  134, 101, 92, .
O=C(O)CN1C(=O)/C(=C\c2ccc(-c3ccc(Cl)c([N+](=O)[O-])c3)o2)SC1=S
  ., 111, ., -44
Cc1noc(C)c1COC(=O)c1cc2c3ccccc3n(C)c2s1
  99, ., 96, 11
O=C(O)c1cc(C(=O)O)cc(-c2ccc(C=Nc3ccc4[nH]c(=O)[nH]c4c3)o2)c1
  101, ., 80, -39
Cc1ccc2c(c1)c1c(n2C)C(C#N)CCC1 (stereo not given)
  114, 96, 82, -12
CN1C(=O)C(C(=O)Nc2ccccc2)C2CC1(C)Oc1ccccc12 (stereo not given)
  93, 103, 82, -26
O=C1CC(NC2CCN(c3ncccn3)CC2)C(=O)N1c1ccc(F)cc1 (stereo not given)
  92, 103, 94, -21
CCn1c(NCc2cccs2)nc2ccccc21
  92, ., 92, 4
Cc1c(C)n(Cc2ccccc2)c2ccc(C(=O)NCc3ccc(OC(C)C)cc3)cc12
  109, 110, 97, .
O=C1/C(=C\c2cccs2)SC(=S)N1CCC(=O)N1c2ccccc2Sc2ccccc21
  ., 112, ., -11
CC(C)n1c(-c2ccncc2)n[nH]c1=S
  116, 103, 88, -3
Cc1ccccc1Nc1nc(N)nc(CSc2nc3scc(-c4cccs4)c3c(=O)[nH]2)n1
  120, ., 90, 11
CCN(CC)CCn1c(SCC(=O)NCc2ccccc2)nc2c(sc3ccccc32)c1=O
  114, 102, 94, 4
O=C1CCC(=O)N1OCC(=O)N(c1ccccc1)c1ccccc1
  100, 109, 101, 2
Cn1c(NN)nc2ccccc2c1=O
  105, 106, 73, -15
S=C(Nc1ccccc1)N1CCOCC1
  109, 99, 96, -21
CCOc1ccccc1NC(=O)Oc1ccc(F)cc1Cl
  78, 101, 86, .
O=C(O)COc1cc(O)c2c(=O)c(-c3ccc4c(c3)OCCO4)coc2c1
  84, ., 93, -22
O=C(O)C1C2C=CC(C2)C1C(=O)NCCN1CCOCC1 (stereo not given)
  99, 101, 101, 2
COC(CN(C)S(=O)(=O)c1ccc(N2CCCCS2(=O)=O)cc1)OC
  102, 105, 92, -15
Cc1ccc(C2=CSC3=C(C(=O)c4ccc(S(=O)(=O)N(C)C)cc4)CCN23)cc1
  89, ., 85, -52
Cc1ccc(N2CC(C(=O)N3CCN(c4ccc(-c5noc(C6CCC6)n5)cc4)CC3)CC2=O)cc1C (stereo not given)
  ., 101, ., -28
Cc1ccc(C)c(-c2[nH]c3c(c2-c2c(-n4cccc4)n(C)c(=O)[nH]c2=O)c(=O)[nH]c(=O)n3C)c1
  105, 103, 86, -17
NC(=O)C1CCN(C(=O)c2cccc(Cl)c2)CC1
  109, 98, 81, .
CC(=O)N(c1ccccc1)c1nc(C)cc(C)c1C#N
  122, ., 77, -4
O=c1[nH]c(C2CCN(S(=O)(=O)c3ccc(Cl)cc3)CC2)nc2c1nnn2Cc1ccccc1F
  ., 97, ., 4
Cc1ccccc1OCCN1C(=O)NC(CC(C)C)C1=O (stereo not given)
  91, ., 98, -11
CCCCn1c(-c2cc3c(s2)CCC3)nc2cc(S(N)(=O)=O)ccc21
  120, ., 92, -38
CS(=O)(=O)Nc1cnc(N2CCC(C(N)=O)(N3CCCCC3)CC2)c(C(=O)O)c1
  ., 109, ., -43
CC(SC1=Nc2ccccc2C2=NC(C(C)C)C(=O)N12)C(=O)Nc1ccccc1Cl (stereo not given)
  ., 105, ., -22
O=C(CSC1=NCCS1)Nc1cc(Cl)ccc1N1CCOCC1
  116, 98, 86, -20
CCC(C(=O)Nc1cccc(OC)c1)n1nc(C)n2c(cc3cc(C)ccc32)c1=O (stereo not given)
  ., 99, ., -11
c1ccc(NC2=Nc3ccccc3CS2)cc1
  103, ., 87, -40
N#CSC1CC(=O)N(c2ccc(F)cc2)C1=O (stereo not given)
  113, 102, 66, -19
CC(C)c1cccc(C(C)C)c1NC(=O)C(C)(C)C
  98, ., 89, -18
CC(C)Sc1nccn2nc(-c3cccs3)cc12
  ., 107, ., -2
Cc1[nH]c(=O)[nH]c(=O)c1NCCO
  97, 105, 89, -9
CCOC(=O)c1cc2c(ccn2C)n1CC(=O)N1CCCC(C)C1 (stereo not given)
  108, 99, 96, -4
Cc1cccc(C)c1N1C(=O)N2CCCN2C1c1ccc(F)cc1 (stereo not given)
  ., 98, ., -13
CCc1nnc(-c2cn(CC(=O)Nc3ccc(OC)cc3)c3ccccc23)o1
  ., 100, ., -15
Cc1cccc(C(=O)Nc2ccccc2Sc2cc(C)nc3ncnn23)c1
  ., 101, ., -38

Already shown: 5 of the compounds above.
The line under a structure holds: Sa growth inh, GIV Gai3 FP, Sa growth inh second temp, HCMV UL50-53 inh
Cc1ccccc1Nc1nc(N)nc(CSc2nc3scc(-c4cccs4)c3c(=O)[nH]2)n1
  120, ., 90, 11
CCN(CC)CCn1c(SCC(=O)NCc2ccccc2)nc2c(sc3ccccc32)c1=O
  114, 102, 94, 4
O=C1CCC(=O)N1OCC(=O)N(c1ccccc1)c1ccccc1
  100, 109, 101, 2
Cn1c(NN)nc2ccccc2c1=O
  105, 106, 73, -15
S=C(Nc1ccccc1)N1CCOCC1
  109, 99, 96, -21

More results follow.
The line under a structure holds: Sa growth inh, GIV Gai3 FP, Sa growth inh second temp, HCMV UL50-53 inh
CCOc1ccc(S(=O)(=O)c2cn(Cc3cc(C)ccc3C)c3ccc(OCC)cc3c2=O)cc1
  110, 108, 89, -21
Fc1ccc(-c2noc(COc3ncnc4ccccc34)n2)cc1
  121, ., 94, -6
CCN1CCN(C(=O)c2cc(=O)n(CC)c3c2c(=O)n(CC)c(=O)n3C)CC1
  ., 99, ., -16
CCCN1CCN(CCCNC(=O)c2cc3c(s2)-c2c(C)nn(-c4ccccc4)c2CC3)CC1
  ., 110, ., -58
COc1cccc(C(=O)NCCN2CCOCC2)c1
  97, 107, 78, .
Cn1c(C(O)c2ccccc2)nc2ccccc21 (stereo not given)
  109, 101&100, 87, -8
CCN(CC)CC(O)COc1ccc(OCc2ccccc2)cc1 (stereo not given)
  109, 109, 90, -23
N#Cc1ccc(C(=O)Nc2ccc3c(c2)N(C2CCCC2)C(=O)c2ccccc2S3)cc1
  108, 105, 97, .
O=C(Cn1cnc2ccccc2c1=O)Nc1ccc(S(=O)(=O)Nc2nccs2)cc1
  89, 105, 88, -7
CC(=O)Nc1ccc(C2=NNC(=NC(C)C)SC2)cc1
  103, ., 93, -32
CCNS(=O)(=O)c1cc(-c2nnc(Nc3cccc(C(F)(F)F)c3)c3ccccc23)ccc1C
  108, 109, 83, -27
CC(C)c1nnc(NC(=O)c2cc(=O)c3ccc(Br)cc3o2)s1
  ., 99, ., -70
CCNC(=O)c1ccc2c(c1)sc1nc(-c3ccc(CC)cc3)cn12
  71, 99, 81, -23
Cc1nn(-c2ccc(F)cc2)c(-n2cccc2)c1C(=O)N(C)Cc1ccccc1
  102, 107, 103, 13
Nc1c(C(=O)C2CC2)oc2ccc(Br)cc12
  ., 99, ., -62
COCCCNC(=O)C1CCN(Cc2cc3ccccc3n2Cc2cccc(C)c2)CC1
  111, 100, 80, .
CC(C)Sc1nc2ccccc2n1CC(=O)N1c2ccccc2CC1C (stereo not given)
  97, ., 85, -14
COC(=O)c1ccc(C(=O)O)nc1
  100, 104, 98, -7
FC(F)(F)c1cccc(OCCCn2cncn2)c1
  108, 108, 85, 7
O=S(=O)(c1ccc(Cl)cc1)c1ccc(NCc2ccc3c(c2)OCO3)nn1
  ., 103, ., -14
COc1ccc(C2C(C(=O)Nc3ccccc3)=C(C)Nc3nc(SCC(=O)c4ccc(C)cc4)nn32)cc1 (stereo not given)
  95, 100, 96, .
COC(=O)CC1=CC(SCC(=O)Nc2ccccc2C)=Nc2ccccc2N1
  ., 107, ., -36
N#Cc1ccccc1S(=O)(=O)NCC(=O)NC1CCCc2ccccc21 (stereo not given)
  98, ., 98, -3
CCn1c(=O)n(CC(=O)O)c2ccccc21
  ., 99, ., -6
COc1ccc(NC(=O)CC2C(=O)N(c3ccc(OC)cc3)C(=O)N2Cc2ccc(OC)c(OC)c2)cc1 (stereo not given)
  98, 110, 91, 7
C#CCN=Cc1c(O)n(CC)c(=S)n(CC)c1=O
  93, ., 90, -11
CCc1oc(C(=O)O)cc1CN
  115, 102, 101, 3
CC1(C)Cc2c(sc3nc(N4N=N4)nc(NCCO)c23)CO1
  107, 111, 85, -6
COc1ccc(NC(=O)c2ccc3nc(CCc4ccccc4)oc3c2)c(OC)c1
  116, 96, 104, .
CC(C)CCN1NC2(CCCCC2)NC1=S
  101, ., 82, -12
Cc1cccc(N2CCN(C(=O)C3CCN(S(=O)(=O)c4cccc5nsnc45)CC3)CC2)c1C
  ., 102, ., -44
Cc1ccc2[nH]cc(CCNC(=O)CCC(=O)N3CCSc4c3c(C)nn4-c3ccccc3)c2c1
  ., 104, ., -2
COc1ccc(OC)c(NC(=O)Nc2ccc(Nc3cc(N(C)C)nc(C)n3)cc2)c1
  ., 100, ., -36
O=C(NC1CCN(Cc2ccccc2)CC1)C1CCN(c2cc(-c3cccc(F)c3)ncn2)CC1
  ., 101, ., -44
COC(=O)c1ccc(COC(=O)Cc2coc3cc4c(cc23)CCC4)o1
  95, ., 92, -40
CCOc1ccc(NC(=O)C2CC(=O)N(CCCN3CC(C(=O)Nc4ccc(OCC)cc4)CC3=O)C2)cc1 (stereo not given)
  88, 103, 86, -13
Cc1cc2c(cc1C)C(c1cccc(OC(C)C)c1)CC(=O)N2 (stereo not given)
  114, 103, 86, -8
COC(=O)NCCc1ccc(OC)cc1
  102, 98, 90, 8
COc1ccc2[nH]c3c(c2c1)CC(C)NC3=O (stereo not given)
  111, ., 84, -16
Cc1no[n+]([O-])c1COc1ccccc1/C=C1\NC(=S)NC1=O
  86, ., 90, -11
FC(F)(F)c1cccc(CSc2ncnc3c2oc2ccccc23)c1
  96, 102, 90, -19
CCOC(=O)Cn1c(=O)c2c(nc3n2CCCCN3c2ccc(OCC)cc2)n(C)c1=O
  ., 98, ., -20
O=C(Nc1cccc(F)c1)NC1(C(=O)NCC2CCCO2)CCCCC1 (stereo not given)
  101, 102, 85, -22
N#CC1=C(N)Oc2ccc3ccccc3c2C1c1ccccc1 (stereo not given)
  105, ., 94, -18
O=C(c1cn(-c2ccccc2)nc1-c1cccnc1)N1CCCCC1
  102, 100, 75, 2
CCCC(=O)Nc1nnc(S(=O)(=O)N(C)Cc2ccc(Cl)cc2)s1
  79, 106, 91, .
O=C(O)CCc1nc2cc(Cl)ccc2oc1=O
  93, 101, 66, -20
CCn1c(SCc2nc(-c3ccccc3)no2)nc2ccccc21
  97, 105, 81, -10
CCc1ccc(-c2nc(CN3CCC(C(=O)NCCc4ccc(C)cc4)CC3)c(C)o2)cc1
  100, 101, 89, -30
CC(C)C(=O)Nc1nc(-c2ccccc2)cs1
  75, ., 91, 1
CC(=Nc1ccccc1)C1=C(O)CSC1=O
  111&94, ., 86&88, -26&2
COc1cccc(NC(=O)CCn2nc(-c3ccccc3OC)c3c(C)cc(C)nc32)c1
  89, 101, 78, .
Cc1ccc(S(=O)(=O)N2C3C=CC(C3)C2C(=O)O)cc1 (stereo not given)
  72, 108, 88, .
O=C(c1ccc(S(=O)(=O)N2CCCCCC2)cc1)N1CCC(CN2C(=O)c3cccc4cccc(c34)C2=O)CC1
  ., 104, ., -19
